# Screens deposited in PubChem by National Center for Advancing Translational Sciences (NCATS).
# CtBP-E1A blk – inhibitors of CtBP/E1A interaction | 0.49% of 340,000 active | AlphaScreen GST-E1A/His-CtBP binding, 1536-well; active compounds read low; control for the full effect not named in the record | activity change, % (concentration not given with the values) | AID 651724; in the data active means activity change below about -65%; inconclusive means about -30% to -65%; inactive means above about -30%; also: % is scaled to controls: 0 for no effect and ±100 for the full control effect
#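 Steps: dispense buffer (Tris pH 8.0, NaCl 300 mM, TCEP 1 mM, BSA, Tween 20); add 5X protein mix (GST-E1A, His-CtBP, 125 nM each); pin 23 nL compound; 2 h at 37 °C, dark; add 5X beads (50 ug/mL); 1 h; read.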
# D2 agonist – agonists of human D2 dopamine receptor (beta-arrestin); DiscoveRx PathHunter D2 beta-arrestin, luminescence, 90 min; 100% = 57 uM dopamine signal; 0.084% of 360,000 active; activation, % (concentration not given with the values); P14416; in the data active = activation above about 40%; inconclusive = about 15% to 40%; inactive = below about 15%; also: compound concentration not given in the record; the text of the record calls up to 30% inactive
# Target sequence (P14416 whole entry, looked up): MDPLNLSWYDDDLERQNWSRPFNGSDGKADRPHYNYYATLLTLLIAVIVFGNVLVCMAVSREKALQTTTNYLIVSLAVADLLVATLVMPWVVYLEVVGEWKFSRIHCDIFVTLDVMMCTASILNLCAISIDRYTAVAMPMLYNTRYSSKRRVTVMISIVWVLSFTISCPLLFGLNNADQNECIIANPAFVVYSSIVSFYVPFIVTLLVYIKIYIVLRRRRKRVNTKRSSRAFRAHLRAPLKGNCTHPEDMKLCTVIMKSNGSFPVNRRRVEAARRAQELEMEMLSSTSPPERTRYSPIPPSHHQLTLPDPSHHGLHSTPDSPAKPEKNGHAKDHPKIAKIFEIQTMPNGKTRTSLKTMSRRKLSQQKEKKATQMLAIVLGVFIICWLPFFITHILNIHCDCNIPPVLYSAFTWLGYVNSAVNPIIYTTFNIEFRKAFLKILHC
#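 Agonist mode: compounds alone added to overnight-plated D2 PathHunter cells for 90 min at 37 C, with 57 uM final dopamine (EC100) defining full response. Beta-arrestin recruitment detected by chemiluminescent reagent, read after 1 h at ambient temperature.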
# D2 potentiator – positive allosteric modulators of human D2 dopamine receptor; DiscoveRx D2 beta-arrestin cells, luminescence, 90 min; 100% = 57 uM dopamine signal; P14416; 0.23% of 360,000 active; potentiation, % (no concentration beside the values); active = potentiation of 50% or more; inconclusive = 30% to 50%; inactive = 30% or less;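 also: compound concentration not given in the record; tested on top of an EC20 dose of dopamine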
#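 PathHunter beta-arrestin assay in DiscoveRx D2 cells. Compounds were added with an EC20 of dopamine (50 nM final) for 90 min at 37 deg C. Luminescence was read 1 h after detection reagent, with 57 uM dopamine as the EC100 control.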
# gsp antag – antagonizes gsp, the McCune-Albright syndrome mutation; gsp-mutant cells, cAMP HTRF, 30 min; control for the full effect not named in the record; Potency, µM (doses to about 76.9 µM), without a hit: top-dose activity change, negative = inhibition, usual class: inhibitors; 0.4% of 340,000 active; active = falling curve of any shape with a large fitted effect; inconclusive = falling curve, mostly with a smaller effect; inactive = flat or rising curve; cell line not stated here;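 also: intracellular cAMP measured with PDE inhibitor Ro 20-1724 present during compound exposure; potency is read from the fitted curve at half-maximal effect; % is scaled to controls: 0 for no effect and ±100 for the full control effect; nearly all actives have a fitted effect of over 65% in size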
#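 Measurement of cellular cAMP by homogeneous time-resolved fluorescence following a 30 min compound exposure at 37C. The PDE inhibitor […] was present throughout; the assay buffer was DPBS with 0.05% BSA and 0.005% Tween 20.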
# gsp ag – activates gsp, the McCune-Albright syndrome mutation | gsp mutant cells, cAMP HTRF, 30 min; control for the full effect not named in the record | Potency, µM (highest dose often 76.9 µM), without a hit: top-dose activation (cAMP increase), actives largely listed as activators | 0.13% of 340,000 active | AID 624287; active = well fitted activation curve with a large enough effect; inconclusive = small, poorly fitted or top-dose-only effect, or another doubt; inactive = no such curve, though single readings can be large or run the other way; cell line not stated here;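 also: phosphodiesterase inhibitor Ro 20-1724 added with compounds to block cAMP breakdown; potency is read from the fitted curve at half-maximal effect; nearly all actives have a fitted effect of over 60% in size; about a fifth of the inactives were tested at one dose only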
#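 Cells stably selected in G418 were plated at 2000/well, grown 16-24 hr, then given compounds in DMSO with the PDE inhibitor […] (300 uM solution added) for 30 min at 37C; cAMP was read by HTRF.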
# Six1-Eya2 inh – inhibitors of human Six1/Eya2 interaction; AlphaScreen GST-Six1/His-Eya2 binding, biochemical; active compounds read low; control for the full effect not named in the record; AID 651725; Q15475+O00167; activity change, % (test concentration not listed); 0.56% of 360,000 active; in the data active = activity change below about -65%; inconclusive = about -30% to -65%; inactive = above about -30%; also: % is scaled to controls: 0 for no effect and ±100 for the full control effect
#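 Six1/Eya2 binding was read as AlphaScreen signal after compounds were pinned into GST-Six1 plus His-tagged Eya2 (5X stock 250/500 nM) in pH 8.0 Tris/NaCl/TCEP buffer, beads added, then incubated 1 h, 37 C, dark.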
# * hit, by the source's call; ? = inconclusive; · = not tested or not shown; [ ] = another dose, or the depositor's remark.
# Sequence of screens: CtBP-E1A blk	D2 agonist	D2 potentiator	gsp antag	gsp ag	Six1-Eya2 inh
1. C[C@H](CO)N1C[C@H](C)[C@@H](CN(C)S(=O)(=O)c2cccs2)Oc2ccc(NC(=O)Cn3cnnn3)cc2C1=O
  2	-2.9	4	5%	·	1
2. Cc1cc2oc(=O)cc(Cn3ccnc3)c2cc1Cl
  3	-2.7	-3	0%	?	5
3. COc1ccc(CCNC(=S)NC(=O)c2ccc(Br)cc2)cc1OC
  -22	-0.4	-5	-28%	29%	-12
4. CN(CC(=O)Nc1ccc(F)cc1)C(=O)c1ccc(-c2ccc(Cl)cc2)o1
  -5	1.2	-4	-25%	14%	-1
5. CC(=O)N(C)c1ccc(N2CCOCC2)c2c1C(=O)c1ccccc1C2=O
  17	-3.7	-6	?	-64%[inhibitor]	14
6. CC1(C)CC(=O)C2=C(C1)OC(=O)CC2c1cccs1 (stereo not drawn)
  2	-3.5	-9	6%	-27%	-2
7. CC(=O)c1cc(C#N)c(SCc2ccncc2)nc1C
  -9	-2.7	1	5%[15.4 µM]	-16%	-13
8. CSc1ccc(C#N)cc1NC(=O)c1ccccc1C
  2	3.5	-3	4%	?	2
9. CC1CCc2c(sc(NC(=O)c3cccs3)c2C(=O)O)C1 (stereo not drawn)
  -2	1.3	-9	-28%	2%	-2
10. CC(NCCCSc1ccccc1)C(O)c1ccc(O)cc1 (stereo not drawn)
  -17	-4.7	-27	·	-52%[inhibitor]	-5
11. Cc1cc(C)n2nc(CNS(=O)(=O)c3ccc(F)c(C)c3)nc2n1
  5	-1.4	1	5%	-17%	1
12. COC(=O)c1ccc(NC2=CC(=O)CC(C)(C)C2)cc1
  1	-4.3	-1	-8%	-1%	-1
13. C/C(CC(=O)Nc1ccc(Cl)c(C(F)(F)F)c1)=N\NC(=O)c1cccc(O)c1
  -2	-6.7	-16	2%	4%	1
14. Cn1c(Sc2ccc(Br)cc2)c(C=O)c2ccccc21
  8	-11	-14	-4%	?	20
15. S=C(NC1CCCC1)N1CCN(c2cccc(Cl)c2)CC1
  -4	-1.9	-2	-9%	-10%	-1
16. Cc1ccccc1NN=Nc1nc2c([nH]1)c(=O)n(C)c(=O)n2C
  -10	-1.7	-4	16%	0%	-11
17. COc1ccc(C2C(C(=O)N3CCCC3)c3cc(OC)c(OC)cc3C(=O)N2C)cc1 (stereo not drawn)
  5	-2.2	-4	1%	-56%[inhibitor]	3
18. COc1ccc(Cl)cc1NC(=O)C1CCCN(S(C)(=O)=O)C1 (stereo not drawn)
  2	0.5	-1	-9%	?	11
19. O=C(C1CCN(S(=O)(=O)N2CCOCC2)CC1)N1CCN(c2ccccc2F)CC1
  ·	1.5	-11	6%	28%	1
20. OCC[C@@H]1C[C@H](O)[C@@H](O)[C@@]2(OCCc3ccccc32)O1
  -9	0.8	-63	9%	·	-2

# A draw from above in order of SMILES length, smallest number first.
# Sequence of screens: CtBP-E1A blk	D2 agonist	D2 potentiator	gsp antag	gsp ag	Six1-Eya2 inh
14. Cn1c(Sc2ccc(Br)cc2)c(C=O)c2ccccc21
  8	-11	-14	-4%	?	20
16. Cc1ccccc1NN=Nc1nc2c([nH]1)c(=O)n(C)c(=O)n2C
  -10	-1.7	-4	16%	0%	-11
20. OCC[C@@H]1C[C@H](O)[C@@H](O)[C@@]2(OCCc3ccccc32)O1
  -9	0.8	-63	9%	·	-2
19. O=C(C1CCN(S(=O)(=O)N2CCOCC2)CC1)N1CCN(c2ccccc2F)CC1
  ·	1.5	-11	6%	28%	1
17. COc1ccc(C2C(C(=O)N3CCCC3)c3cc(OC)c(OC)cc3C(=O)N2C)cc1 (stereo not drawn)
  5	-2.2	-4	1%	-56%[inhibitor]	3

# (continued)
# Sequence of screens: CtBP-E1A blk	D2 agonist	D2 potentiator	gsp antag	gsp ag	Six1-Eya2 inh
21. CN1CCN(C(=O)/C(=C\c2cccnc2)NC(=O)c2cccc(Br)c2)CC1
  3	-4.0	-21	5%	-16%	-17
22. CCOC(=O)c1nc2sc3c(c2c(=O)n1C(C)C(=O)OCC)CCCC3 (stereo not drawn)
  13	-2.4	-9	-23%	-10%[15.4 µM]	-9
23. CCC(=O)Nc1ccc(CCC(=O)N2CCCC2)cc1
  ·	-0.3	5	-6%	8%	10
24. CCOC(=O)c1cnc2oc3ccccc3n2c1=O
  5	6.5	5	7%	-5%[15.4 µM]	-9
25. CCCCOC(=O)c1ccc(NC(=O)c2ccc(F)cc2F)cc1
  5	-2.6	-10	3%	-3%	12
26. Cc1nnc(SCC(=O)N2CCC(C(=O)Nc3nccs3)CC2)n1Cc1ccccc1
  -1	-0.9	1	-2%	-22%	-1
27. Cc1ccc(S(=O)(=O)Nc2ccc(-n3cnnn3)cc2)cc1
  -1	-0.4	-7	-5%	24%	-15
28. COc1ccccc1C(CNC(=O)c1ccc(C)c(S(=O)(=O)N2CCCCC2)c1)N(C)C (stereo not drawn)
  ·	-1.0	-31	6%	8%	2
29. CN1CC(=O)N2Cc3[nH]c4ccccc4c3C[C@H]2C1=O
  3	-1.5	-7	-27%	-18%[15.4 µM]	0
30. COc1cccc(-c2sc3ccc(OC)cc3c2C#CCC(C)O)c1 (stereo not drawn)
  3	0.3	-11	3%	·	9

# Only D2 agonist (4 entries from above):
nr	molecule	D2 agonist
26	Cc1nnc(SCC(=O)N2CCC(C(=O)Nc3nccs3)CC2)n1Cc1ccccc1	-0.9
27	Cc1ccc(S(=O)(=O)Nc2ccc(-n3cnnn3)cc2)cc1	-0.4
28	COc1ccccc1C(CNC(=O)c1ccc(C)c(S(=O)(=O)N2CCCCC2)c1)N(C)C (stereo not drawn)	-1.0
29	CN1CC(=O)N2Cc3[nH]c4ccccc4c3C[C@H]2C1=O	-1.5

# More entries follow.
# Sequence of screens: CtBP-E1A blk	D2 agonist	D2 potentiator	gsp antag	gsp ag	Six1-Eya2 inh
31. CNC[C@H]1Oc2ccc(NC(=O)Nc3ccc4c(c3)OCO4)cc2C(=O)N([C@H](C)CO)C[C@@H]1C
  ·	-2.2	-8	6%	2%	-10
32. O=C1c2ccccc2C2N1CCCN2C(=O)c1sc2ccccc2c1Cl (stereo not drawn)
  4	-1.2	-5	·	-49%[inhibitor]	-9
33. CCOc1cc2[nH]c(=S)n(CCCN3CCOCC3)c(=O)c2cc1OCC
  -1	-3.0	-13	-1%	5%	-2
34. CS(=O)(=O)N(CC(O)CON=C1c2ccccc2-c2ccccc21)c1ccc(F)cc1 (stereo not drawn)
  -19	-0.7	-3	-18%	3%	-10
35. Cc1ccccc1CSc1ncc(C#N)c(N)n1
  23	-2.2	-12	-5%	10%	5
36. O=C1OCC(CO)(CO)N=C1NNc1ccccc1Cl
  8	1.9	0	7%	-21%	-7
37. NS(=O)(=O)c1ccc(N/C=C\C(=O)c2ccncc2)cc1
  12	1.4	-1	1%	2%[15.4 µM]	-5
38. Nc1ccc2nc(SCc3ccc([N+](=O)[O-])cc3)sc2c1
  6	2.6	12	9%	5%	-29
39. COC(=O)CCC(=O)OC1(C)C(=O)C=C2C=C(C3CC3)N(c3cccc(C#N)c3)C=C2C1=O (stereo not drawn)
  22	5.9	6	-4%	?	9
40. Cn1c(=O)c(=O)n(C)c2cc(S(=O)(=O)CCC(=O)Nc3ccc(C(F)(F)F)cc3)ccc21
  -14	2.1	-6	3%	21%	4
41. CCN1CCN(CCC(=O)Nc2ccc3c(c2)OCO3)CC1
  -3	1.5	-4	-5%	-9%	6
42. CN(CC(=O)Nc1ccccc1C(F)(F)F)C(=O)COc1ncnc2ccccc12
  2	1.1	-5	4%	12%	-3
43. CCOC(=O)c1cc(CC)sc1NC(=O)CN1C(=O)C(=O)N(CC(C)C)C1=O
  5	0.4	-1	-6%	-8%[15.4 µM]	0
44. C[C@H]1COC[C@@H](C/C=C/c2ccccc2)N1c1ccccc1
  6	-5.1	3	·	5%	13
45. COc1cc(C(=S)N2CCN(C(c3ccccc3)c3ccccc3)CC2)cc(OC)c1O
  -29	-2.1	1	-33%	-22%	?
46. CC(=O)Nc1nc2c(s1)C(=O)NCCC2
  0	-1.8	-10	·	16%[15.4 µM]	-2
47. CN(C)CCC(=O)c1ccc(Cl)cc1
  12	-1.1	-7	6%	8%	13
48. CC1(C)CC(=O)C(N=Nc2c(Cl)cc(Cl)cc2Cl)=C(O)C1
  -2	-1.5	-9	-3%	1%	9
49. Cc1ccc(SCCNC(=O)CN(c2ccc3c(c2)OCO3)S(C)(=O)=O)cc1
  -2	-1.7	-12	-2%	?	3
50. CCC1(c2ccccc2)NC(=O)N(CC(=O)N2CCc3ccccc32)C1=O (stereo not drawn)
  5	-1.1	-20	8%	?	-5
51. CC(C)(CO)NS(=O)(=O)c1ccc2c(c1)C(=NO)c1cc(S(=O)(=O)NC(C)(C)CO)ccc1-2
  0	0.6	-10	5%	7.1µM*	-14
52. COC(=O)CNC(=O)COc1ccccc1
  8	-3.8	-5	4%	3%	3
53. C/C=C/C=C\C(=O)Nc1cccc(C2=NOC3(C2)C[C@H](C(N)=O)N(C(=O)CC#N)C3)c1 (stereo partly drawn)
  -2	-6.4	-4	11%	?	-20
54. c1ccc2c(c1)CC/C2=N/Nc1nc2ccccc2[nH]1
  -4	3.9	-15	-24%	-6%[15.4 µM]	-6
55. C=CCn1c(SCC(=O)Nc2ccccc2OC)nc2c([nH]c3ccccc32)c1=O
  1	-2.7	-4	-3%	4%	3
56. COc1ccc(C2C(C)C(=O)C(C)C(c3ccc(OC)cc3)N2N=O)cc1 (stereo not drawn)
  -4	-1.4	-10	-1%	25%	4
57. O=C(NC(=S)NCCCN1CCOCC1)c1ccco1
  3	-2.4	-12	4%	32%	5
58. Cc1ccc(S(=O)(=O)/N=c2\sccn2C)cc1
  3	-1.3	-16	8%	-3%	2
59. CC(C(=O)Nc1cccc([N+](=O)[O-])c1)[n+]1ccccc1 (stereo not drawn)
  ·	-0.7	-13	13%	-21%	6
60. CCOC(=O)N1CCN(CC(=O)Nc2sccc2C#N)CC1
  35	-0.3	3	-7%	0%	9
61. COc1ccc(CN(C)C(=O)Cc2c[nH]c3ccccc23)c(OC)c1OC
  13	1.6	1	-13%	-4%	2
62. CC(=O)c1ccc(S(=O)(=O)NCCCC(=O)NCCc2ccccn2)cc1
  4	-0.2	0	6%	-3%	5
63. Cc1ccccc1Cn1c(O)c(N=NC(=S)Nc2ccccc2F)c2ccccc21
  ·	9.2	-21	-4%	2%	?
64. CC1=Nc2ccccc2NC(=O)C1Sc1nnc(C)s1 (stereo not drawn)
  -2	-1.9	23	-2%	-44%[inhibitor]	2
65. CC(=O)Nc1ccc(S(=O)(=O)Nc2ccn(Cc3ccccc3Cl)n2)cc1
  -18	0.5	-16	6%	-26%	-8
66. COc1ccc(C2c3c(-c4ccccc4O)n[nH]c3C(=O)N2Cc2ccco2)cc1 (stereo not drawn)
  -7	-2.0	-1	-7%	0%[15.4 µM]	-21

# Hits appear at their usual frequency; 1.4% or so of the library scored in one or more.
